# Source: PubChem (National Center for Advancing Translational Sciences (NCATS))
# Cruzain inh noDet: qHTS Assay for Promiscuous and Specific Inhibitors of Cruzain (without detergent); Cruzipain (Trypanosoma cruzi), P25779; purified cruzain, Z-FR-AMC fluorescence, no detergent; Potency, µM, inactives show max response, negative = inhibition, most hits filed as inhibitors; 200,000 compounds, 2.3% hits; AID 1476, 2009; active means well fitted curve in the direction sought with a large enough effect; inconclusive means small, poorly fitted or top-dose-only effect, or another doubt; inactive means no such curve, though single readings can be large; an effect the other way counts as inactive or inconclusive;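 further: plate controls were enzyme without inhibitor for no effect and buffer without enzyme for full effect; nearly all actives have a fitted effect of over 40% in size; top concentration of the series not given in the record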
# Target sequence (P25779 123-467 limits assumed): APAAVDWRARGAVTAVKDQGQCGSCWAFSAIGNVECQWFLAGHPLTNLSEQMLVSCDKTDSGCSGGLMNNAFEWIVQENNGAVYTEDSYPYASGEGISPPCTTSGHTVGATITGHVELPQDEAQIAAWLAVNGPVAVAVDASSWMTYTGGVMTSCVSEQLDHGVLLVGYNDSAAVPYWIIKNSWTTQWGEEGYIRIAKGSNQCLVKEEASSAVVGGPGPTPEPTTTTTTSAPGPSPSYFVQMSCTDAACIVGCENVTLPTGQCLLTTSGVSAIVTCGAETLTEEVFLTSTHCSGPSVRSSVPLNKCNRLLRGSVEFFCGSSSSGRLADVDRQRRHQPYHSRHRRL
#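 Detergent-free condition (0.00005% Triton X-100) in acetate buffer pH 5.5 with DTT. 1.5 nM enzyme and compound were pre-mixed 15 min, then 2 uM Z-FR-AMC substrate added; reaction progress from fluorescence change between first and third reads (60 s).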
# Marburg entry inh: qHTS for inhibitors of binding or entry into cells for Marburg Virus; Marburg virus pseudotyped entry inhibition, cell reporter; control for the full effect not named in the record; about a third of the inactives were read at about 46 µM; Potency, µM (titrated, usually from 37.8 µM), inactives show at the top dose activity change, negative = inhibition, most hits filed as inhibitors; 300,000 compounds, 1.8% hits; AID 540276, 2011; active = well fitted inhibition curve with a large enough effect; inconclusive = small, poorly fitted or top-dose-only effect, or effect the other way; inactive = flat fitted curve, though single readings scatter; tested in HEK293 cells; about a fifth of its hits are not listed in these tables; further: on the % scale 0 is the no-effect control and ±100 the full control effect; luciferase read-out
# NS1 inh: qHTS Assay for Inhibitors of Influenza NS1 Protein Function; S. cerevisiae slowed by influenza A NS1, growth recovery by OD600; Potency, µM (series often up to 46.1 µM), inactives show at the top dose activity, positive = more growth; 270,000 compounds, 0.4% hits; further: actives are rising curves; nearly all actives have a fitted effect of over 50% in size
#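 Compounds were scored for reversing the slow growth caused by influenza A NS1 in S. cerevisiae, measured by optical density at 600 nm. Assay medium contained 2% galactose at pH 6.0; NS1-free yeast of the same strain were the positive control.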
# Lassa entry inh: qHTS for Inhibitors of binding or entry into cells for Lassa Virus | Lassa virus pseudotype entry inhibition, cell reporter; control for the full effect not named in the record | Potency, µM (highest dose often 37.9 µM), for the others: top-dose activity change, negative = inhibition, most hits filed as inhibitors | 300,000 compounds, 1.2% hits | AID 540256, 2011; active means well fitted inhibition curve with a large enough effect; inconclusive means small, poorly fitted or top-dose-only effect, or effect the other way; inactive means flat fitted curve, though single readings scatter; tested in HEK293 cells; further: on the % scale 0 is the no-effect control and ±100 the full control effect; nearly all actives have a fitted effect of over 50% in size; luciferase read-out
# RE007 growth inh: qHTS Assay for Inhibitors of the HIV-1 protein Vpr; S. pombe RE007 Vpr strain, BacTiter-Glo ATP luminescence, 24 h; control for the full effect not named in the record; Potency, µM (highest dose often 92.2 µM), for inactives: at the top dose activity change, negative = less growth; AID 651644, 2012; 360,000 compounds, 0.21% hits; active = well fitted falling curve with a large enough effect; inconclusive = small, poorly fitted or top-dose-only effect; inactive = no such curve, though single readings can be large or run the other way;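 further: on the % scale 0 is the no-effect control and ±100 the full control effect; nearly all actives have a fitted effect of over 50% in size; the assay follows cell death caused by Vpr and the record does not say whether a fall means rescue or toxicity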
#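 Fission yeast RE007 carrying one integrated HIV-1 vpr copy, seeded at OD 0.01 in PMG+AL medium with 23 nL pinned compound. Grown 24 h at 30 degrees; viability read by BacTiter-Glo luminescence after 5 min.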
# 2A StopGo: High Throughput Screening for Foot and Mouth Disease Virus Antivirals. AID 1159524, 2015. 410,000 compounds, 1.2% hits. Potency, µM (top dose mostly 57.9 µM), inactives show at the top dose signal change, negative = less light. human cells with a luciferase reporter of 2A StopGo recoding; control for the full effect not named in the record; active = well fitted falling curve with a large enough effect; inconclusive = small, poorly fitted or top-dose-only effect; inactive = no such curve, though single readings can be large or run the other way; tested in HEK293T cells; further: on the % scale 0 is the no-effect control and ±100 the full control effect; nearly all actives have a fitted effect of over 45% in size; luciferase light after 4 h
# Cruzain Triton: qHTS Assay for Promiscuous and Specific Inhibitors of Cruzain (with detergent); Cruzipain (Trypanosoma cruzi), P25779; purified cruzain, Z-FR-AMC fluorescence, 0.01% Triton; Potency, µM, for the others: max response, negative = inhibition, hits mostly inhibitors; 200,000 compounds, 0.43% hits; AID 1478, 2009; active means well fitted curve in the direction sought with a large enough effect; inconclusive means small, poorly fitted or top-dose-only effect, or another doubt; inactive means no such curve, though single readings can be large; an effect the other way counts as inactive or inconclusive;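 further: plate controls were neutral wells for no effect and buffer without enzyme for full effect; nearly all actives have a fitted effect of over 40% in size; top concentration of the series not given in the record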
#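 Enzyme 1.5 nM, Z-FR-AMC 2 uM, NaOAc 100 mM pH 5.5, DTT 5 mM, Triton X-100 0.01%; 15 min RT compound preincubation; kinetic ex360/em450, 60 s delta.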
# SARS PLP yeast: qHTS of Yeast-based Assay for SARS-CoV PLP; Potency, µM (top dose mostly 32.9 µM), without a hit: at the top dose activity, positive = growth rescue; 330,000 compounds, 0.19% hits; S. cerevisiae expressing SARS-CoV PLpro, growth rescue; control for the full effect not named in the record; AID 485353, 2010; further: 0% is about no effect; nearly all actives have a fitted effect of over 55% in size; growth read by luminescence after 48 h
# Starred values were filed as active, the others as inactive; u = inconclusive; x = not tested or not shown; & = joins results of further samples; [ ] = another dose, or the depositor's remark. Unless noted, the call rests on the fitted dose curve; in most records, active means well fitted rising curve with a large enough effect; inconclusive means small, poorly fitted or top-dose-only effect; inactive means no such curve, though single readings can be large or run the other way. Potency means the concentration at half of the fitted maximal effect.
SMILES,Cruzain inh noDet,Marburg entry inh,NS1 inh,Lassa entry inh,RE007 growth inh,2A StopGo,Cruzain Triton,SARS PLP yeast
Cc1ccc2nc(NC(=O)C3CC3C)sc2c1 (centres undefined),x,-14%[46.1 µM],2%,u,3%,27%,x,3%
N#CC(c1ccc(=O)[nH]n1)c1ccc(Cl)cc1Cl (centres undefined),x,7%[46.1 µM],-1%,5%[46.1 µM],3%,-8%,x,0%
O=C(CN1C(=O)c2ccccc2C1=O)N1CCN(c2ccccn2)CC1,1%,4%,9%,18%,16%,21%,-7.5%,0%
Cc1c(N=NC2=C(O)CC(C)(C)CC2=O)cc2c(c1[N+](=O)[O-])C(C)(C)CC2(C)C,x,u,-29%,u,4%,0%,x,0%
Cc1c(NC(=S)N/N=C/c2ccc(N(C)C)cc2)c(=O)n(-c2ccccc2)n1C,-22%,u,-37%,12%,33%,-8%,-13%,11%
CCCCOc1ccc(C)cc1CN(CCO)CCO,-15%,-22%&-22%,1%,-13%,-23%,x,5.4%,5%
CNS(=O)(=O)c1cc(OCC(N)=O)c(C)cc1Cl,2%,-2%,15%,-4%,1%,23%,4.8%,9%
C=CCn1c(SCC(=O)Nc2ccccc2CC)nnc1-c1ccncc1,0%,21%,-7%,-1%,-12%,-5%,1.9%,2%
N#C/C(C(N)=O)=c1/ccc2c(c1)N1C3=C(CCCC3)CC3CCCCC31N=2 (centres undefined),-4%,1%,-96%,-18%,-22%,u,-2.8%,0%
Cc1cccc(/C=C/c2onc(C)c2S(=O)(=O)N2CCC(C(=O)N3CCCCCC3)CC2)c1,x,u,u,u,-11%,-12%,x,-2%
COC(=O)c1c[nH]n2c(=O)c(C(C)C)c(C)nc12,x,-8%[46.1 µM],x,-1%[46.1 µM],-15%,-4%,x,2%
CC(C)(C)c1cc(C(=O)O)n[nH]1,-1%,11%,3%,15%,2%,x,4.2%,1%
Cc1ccc(-c2cc(-c3ccc(C)cc3O)[nH]n2)cc1,x,x,-59%,x,7%,36%[activator],x,-14%
CCCc1cc(=O)[nH]c(SCc2cc(=O)oc3cc(C)c(C(C)C)cc23)n1,-27%,-1%,11%,6%,3%,-12%,-9.5%,1%
Cc1ccc2[nH]c(=O)c(CN(CCCN(C)C)C(=O)Nc3ccc(F)cc3)cc2c1,x,u,-2%,-15%,-11%,-10%,x,0%
COc1ccccc1CNC(=O)CN(c1ccc(C)cc1)S(=O)(=O)c1c(C)noc1C,-1%,-1%&-1%[46.1 µM],-24%,0%[46.1 µM],-7%,5%&-2%,-3.6%,-2%
CN1C(=O)C(N=Nc2ccc([N+](=O)[O-])cc2)SC1=S (centres undefined),x,u,x,-15%[46.1 µM],u,u,x,x
CCN(CC)CCN(Cc1cc2cc(C)ccc2[nH]c1=O)C(=O)Nc1ccccc1OC,-1%,u,-4%,-5%,-10%,-18%,1.7%,1%
CCN(CC(=O)Nc1c(F)cccc1F)C(=O)C1CCN(S(=O)(=O)c2ccc(C)c(C)c2)CC1,x,4%[46.1 µM],x,-12%,9%,-15%,x,3%
O=C(c1ccc(F)c(F)c1)N1CCC2(CC1)NCCc1[nH]cnc12,x,29%[46.1 µM],-12%,15%[46.1 µM],-14%,-8%,x,4%
Cc1ccnc(NC(=O)c2c(C)oc3ncn(CC(C)C)c(=O)c23)c1,-10%,x,x,12%[46.1 µM],x,36%[activator],1.3%,x
Cc1cc(/C=C(\C#N)C(=O)OCC#N)c(C)n1CC(C)C,x,-17%[46.1 µM],-10%,u,1%,37%[activator],x,-1%
Cc1ccc(S(=O)(=O)CC(=O)N(CCCN(C)C)c2nc3ccc(C)cc3s2)cc1,x,u,x,u,-4%,20%,x,1%
C=CCN(c1ccc(C(=O)NCCN2CCOCC2)cc1)S(C)(=O)=O,x,6%[46.1 µM],-11%,18%[46.1 µM],13%,-1%,x,14%
CCOCCCNC(=O)C(NC(=O)c1ccc2c(c1)OCO2)c1ccc(Cl)cc1 (centres undefined),x,-12%,x,1%,10%,-12%,x,0%

# Additional entries follow:
SMILES,Cruzain inh noDet,Marburg entry inh,NS1 inh,Lassa entry inh,RE007 growth inh,2A StopGo,Cruzain Triton,SARS PLP yeast
O=C(CN1CCCCC1)NC(=O)Nc1ccccc1F,x,u,x,15%,-10%,12%,x,-1%
O=C(Nc1ccccc1-c1ccccc1)c1ccccc1,x,x,-28%,x,1%,0%,x,-2%
COC(=O)C1CCN(C(=O)COC(=O)c2n[nH]c3ccccc23)CC1,0%,u,-2%,1%,-7%,35%[activator],3.5%,-3%
COc1cccc(N2CCN(C(=O)C3CCN(S(=O)(=O)c4cccs4)CC3)CC2)c1,x,3%,x,u,-4%,-15%,x,-1%
CC/C(=N/N=C(\CC)c1ccccc1)c1ccccc1,-3%,-15%,21%,11%,-4%,-26%,-1.3%,0%
Cc1ccc(C(=O)N2CCN(CCc3ccncc3)CC2)cc1,8%,u,x,-6%[46.1 µM],x,9%,0.3%,x
CN(C)c1nc(N)nc(CSc2nc3c(c(=O)n(C)c(=O)n3C)n2Cc2ccccc2F)n1,x,0%[46.1 µM],x,23%,-11%,0%,x,-3%
CC1=C(C(=O)Nc2cccc(C(=O)NC(C)c3ccccc3)c2)SCCO1 (centres undefined),x,x,-11%,x,-12%,-7%,x,0%
Cc1cc(-c2ccco2)n(CC(=O)O)n1,2%,11%,-3%,2%,12%,x,0.0%,9%
Cc1ccc(C(=O)Nc2ccc(O)cc2C(=O)O)cc1C,-9%,-3%,23%,u,12%,1%,-17%,1%
Cn1c(CN2CCOCC2)nc2cc(NC(=O)c3ccc(F)cc3)ccc21,-6%,-21%,-10%,-5%,-6%,x,-8.8%,7%
Cc1ccc(NC(=O)CSc2nc3ncc(Cl)cc3[nH]2)c(C)c1,x,x,5%,x,15%,-11%,x,16%
COc1ccc([N+](=O)[O-])cc1NC(=O)C1CCCCC1C(=O)O (centres undefined),-6%,11%,1%,u,0%,-16%,-6.6%,-4%
Cn1c(=O)[nH]c(=O)c2c1nc(N1CCCCCC1)n2Cc1cccc2ccccc12,-8%,-20%,-10%,1%,2%,u,-0.9%,0%
Cc1cc(CN(C)C(=O)c2ccc(OC3CCN(S(=O)(=O)N(C)C)CC3)cc2)n[nH]1,x,x,-6%,x,1%,11%,x,-2%
O=C(Nc1ccc(Oc2ccsc2C(=O)O)cc1)c1ccccc1F,x,x,4%,x,12%,46%[activator],x,1%
CC(=O)c1ccc(NC(=O)N2CCN(c3ccc(C)cc3)C(C)C2)cc1 (centres undefined),x,-2%,-5%,-14%,-15%,3%,x,-2%
CC1=C(C(=O)Nc2ccccc2)C(c2cc(CN3CCOCC3)cs2)C2=C(CCCC2=O)N1 (centres undefined),x,1%[46.1 µM],x,14%,-6%,-21%,x,1%
Cc1ccc(-c2nc3ccccc3[nH]2)cn1,x,-1%[46.1 µM],-23%,0%[46.1 µM],u,0%,x,-13%
CCOc1ccc(CNC(=O)CS(=O)(=O)Cc2nc(-c3ccc(OC)cc3)oc2C)cc1,x,x,4%,x,-4%,u,x,2%
COc1ccccc1N(CCC#N)C(=S)Nc1ccc(S(=O)(=O)N2CCOCC2)cc1,x,4%[46.1 µM],x,20%[46.1 µM],-14%,3%,x,1%
COc1cc(CCC(=O)OCC(=O)Nc2c(F)cccc2F)cc(OC)c1OC,x,-6%[46.1 µM],-4%,-1%[46.1 µM],1%,-2%,x,-3%
O=C(OC1CO[C@H]2O[C@@H]1[C@H](OC(=O)c1ccccc1)[C@H]2OC(=O)c1ccccc1)c1ccccc1 (some centres undefined),x,u,x,u,-21%,-18%,x,x
Cc1c(Cc2ccccc2)c(=O)oc2cc(O)cc(O)c12,x,-9%[46.1 µM],18%,-4%[46.1 µM],-1%,9%,x,1%
O=C(/C=C1\SC(=O)NC1=O)Nc1ccc(C(=O)O)cc1,x,x,-1%,x,-1%,-8%,x,4%

# Carrying on:
SMILES,Cruzain inh noDet,Marburg entry inh,NS1 inh,Lassa entry inh,RE007 growth inh,2A StopGo,Cruzain Triton,SARS PLP yeast
Cc1ccc(C)c(N(C(=O)Cn2nnc(-c3cccs3)n2)C(C(=O)NC2CCCC2)c2ccncc2)c1 (centres undefined),0%,-4%,-13%,-9%,33%,0%,-4.9%,1%
O=C(CSc1n[nH]c(-c2ccncc2)n1)Nc1ccccn1,-4%,2%,2%,4%,4%,2%,-2.0%,x
O=C(c1ccc(NS(=O)(=O)c2ccc3[nH]c(=O)[nH]c3c2)cc1)N1CCN(c2ccccc2)CC1,x,8%,x,16%,7%,-15%,x,-4%
Cc1ccc(S(=O)(=O)N2CCCN(S(=O)(=O)c3ccc4ccccc4c3)CC2)cc1,-13%,u,10%,u,2%,x,-1.6%,-14%
CN(C)S(=O)(=O)c1cccc(NC(=S)NCc2ccco2)c1,x,-2%[46.1 µM],x,-3%[46.1 µM],18%,20%,x,2%
C=CCN1N=C(/C=C/c2ccccc2)CCC1=O,x,19%[46.1 µM],x,-13%,9%,19%,x,-4%
CC(=O)O[C@@H]1[C@H]2[C@@H](C[C@@H](C)[C@@H]3C=CC(=O)[C@@]13C)OC(=O)[C@@H]2C,x,x,5%,x,2%,0%,x,-1%
Cc1cc(/C=C(/C#N)c2cccc(F)c2)c(C)n1-c1cccnc1,11%,u,-133%,16%,-2%,x,-4.2%,-25%
CN(CC(=O)Nc1ccc(F)c(F)c1F)C(=O)C1COc2ccccc2O1 (centres undefined),x,3%,x,19%,-4%,-5%,x,6%
NC(=O)CSc1nnc(-c2cccnc2)n1Cc1ccccc1,0%,17%,2%,u,27%,x,1.3%,9%
CCn1nc(NC(=O)c2ccncc2)c2cc3cccc(C)c3nc21,u,6%,-36%,-1%,0%,x,-10%,1%
O=C(Cn1cc(C(F)(F)F)cc(Cl)c1=O)NCCc1ccc(Cl)cc1Cl,x,x,1%,x,4%,-4%,x,0%

# Not a hit list; any-hit rate near 4.7%.
